High-throughput results as filed in PubChem.
miR-21 FLuc = miR-21 reporter, rising signal. AID 2288. 340,000 tested, under 10 active. Potency, µM (doses to about 38.3 µM), for inactives: at the highest dose reporter change, positive = more light. HeLa miR-21 FLuc reporter, luciferase, 48 h; active = well fitted rising curve with a large enough effect; inconclusive = small, poorly fitted or top-dose-only effect; inactive = no such curve, though single readings can be large or run the other way;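 note: % of control where 0% means no effect; miR-21 action dims this reporter so a rising signal means less miR-21 action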
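HeLa cells endogenously expressing miR-21, stably carrying CMV-driven firefly luciferase with a downstream miR-21 binding site, 2000 cells/well. Titrations up to approximately 40 uM, 48 hours; luciferase luminescence read.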
* = called active by the depositor; ? = inconclusive. These rows are one share of the data, so the mix of outcomes need not match the whole.

SMILES	miR-21 FLuc
Cc1ccc(C)c(N2CCN(S(=O)(=O)c3cnc(N)nc3)CC2)c1	3.0%
Cc1noc(-c2ccc(NC(C)c3ccccc3)c([N+](=O)[O-])c2)n1 (stereo not drawn)	2.8%
COc1ccc(-c2cc3nc(-c4ccccc4)cc(C(F)(F)F)n3n2)cc1	-2.8%
CC(C)CN(CCNC(=O)c1cn(C)c2ccc(S(=O)(=O)N3CCCCCC3)cc2c1=O)CC(C)C	-1.8%
CCn1c(=N)c(C(=O)NC2CCCCC2)cc2c(=O)n3cc(C)ccc3nc21	3.7%
Cc1cc(C)cc(Oc2nc3c(C)cccn3c(=O)c2/C=C(\C#N)c2nc3ccccc3[nH]2)c1	4.9%
Cc1nn(-c2ccccc2)c2nc(C3CC3)cc(C(=O)Nc3ccc(F)cc3)c12	15.4%
Cc1ccc(Cn2c(CO)cnc2SCC(=O)NCc2ccccc2Cl)cc1	-3.5%
Cc1cc(C)cc(Nc2cc(C(=O)NC3CCC(C)CC3)c3ccccc3n2)c1 (stereo not drawn)	5.7%
CCN(Cc1ccccc1)S(=O)(=O)c1ccc2c(c1)CC(C)N2C(=O)C1CCC1 (stereo not drawn)	23.8%
COCCNc1nc(NCc2cccc(Cl)c2)c2cnn(C)c2n1	8.0%
COc1cccc(CNC(=O)C2CCN(C(=O)N3CCOc4ccc(Cl)cc43)CC2)c1OC	26.7%
CCCS(=O)(=O)N1CC(=O)N(c2ccccc2C)C(C)(C(=O)NC2CCCC2)C1 (stereo not drawn)	-1.0%
CCN1CCN(C(=O)c2ccc3c(c2)N(Cc2ccccc2F)C(=O)c2ccccc2S3=O)CC1 (stereo not drawn)	-0.1%
O=c1c2c3c(sc2n(Cc2ccc(F)cc2Cl)c(=O)n1-c1ccc(Cl)cc1)CCC3	-6.6%
CCn1c(=O)cc(SCC(=O)NCc2ccc(OC)cc2OC)c2ccccc21	5.4%
O=C(Nc1noc2ccccc12)c1ccc(F)cc1	-37.4%
Cc1nn(C(C)C(=O)Nc2cccc(F)c2)c(=O)c2c1sc1ccccc12 (stereo not drawn)	-45.0%
CCC(=O)N1CCc2cc(CNC(=O)c3ccc(C#N)cc3)ccc21	-1.5%
CCN1CCC(N(Cc2cccc(OC)c2)C(=O)Nc2cccc(C)c2C)CC1	-1.5%
CCN(CC)S(=O)(=O)c1ccc2c(c1)N(CC(=O)Nc1cccc(C)c1C)C(=O)C1CCCN21 (stereo not drawn)	-5.4%
CCOc1ccccc1N1CC(c2nc3ccccc3n2CCCCOc2ccccc2)CC1=O (stereo not drawn)	28.6%
O=C(NCc1ccc(Cl)cc1)c1ccc(CNS(=O)(=O)c2ccc(F)cc2)cc1	-7.0%
Fc1cccc(Cl)c1CNc1n[nH]c(-c2ccco2)n1	-77.6%
Cc1c(C(=O)Nc2cccc(C(F)(F)F)c2)oc2ccc3c(c12)C(=O)CC(C)(C)O3	-35.5%

A draw from above in order of SMILES length, descending:
SMILES	miR-21 FLuc
CCN(CC)S(=O)(=O)c1ccc2c(c1)N(CC(=O)Nc1cccc(C)c1C)C(=O)C1CCCN21 (stereo not drawn)	-5.4%
Cc1c(C(=O)Nc2cccc(C(F)(F)F)c2)oc2ccc3c(c12)C(=O)CC(C)(C)O3	-35.5%
Cc1nn(-c2ccccc2)c2nc(C3CC3)cc(C(=O)Nc3ccc(F)cc3)c12	15.4%

Next part
SMILES	miR-21 FLuc
CCc1ccc(NC(=O)c2cc(S(=O)(=O)N3CCCCCC3)ccc2F)cc1	0.6%
COc1cccc(C(=O)Nc2ccc(S(=O)(=O)N(Cc3ccccc3)c3ccccc3)cc2)c1	23.6%
Cn1ccc2c(OCC(=O)Nc3cc(C(F)(F)F)ccc3Cl)cccc2c1=O	2.6%
CCOC(=O)C1CCCN(C(=O)c2ccc(NC(=O)c3nsc4ccccc34)cc2)C1 (stereo not drawn)	-60.2%
COc1cccc(-c2cn3c(n2)sc2cc(C(=O)NCCCc4ccccc4)ccc23)c1	-3.5%
CN(c1ccc(F)cc1)S(=O)(=O)N1CCCC(C(=O)NCCc2ccccc2)C1 (stereo not drawn)	?
COc1ccc(CNCCC(c2ccc(C)cc2)c2ccco2)cc1 (stereo not drawn)	?
CSc1ccc(CCNC(=O)C2=C(C)C(=O)OC23CCCCC3)cc1	1.3%
CCCCNS(=O)(=O)c1ccc2nc(NC(=O)c3cccnc3)sc2c1	15.3%
Cc1cccc(N2CCN(c3nc4ccccc4c(=O)n3-c3ccc(Cl)cc3)CC2)c1C	-2.5%
O=C(NCc1cccs1)c1ccc2c(c1)N(Cc1cccc(F)c1)C(=O)c1ccccc1S2	-7.5%
COc1ccc(Nc2ncc3c(n2)CCN(Cc2cccc(F)c2F)C3)c(OC)c1	1.8%
Cn1cc(S(=O)(=O)N2CCOCC2)cc1C(=O)Nc1cccc(C#N)c1	0.1%
O=C(C1CCN(c2ncnc3c2nc2n3CCCCC2)CC1)N1CCN(c2ccc(Cl)cc2)CC1	-0.9%
CC(=O)c1ccc(NC(=O)c2ccc(-n3cnnc3)cc2)cc1	-3.3%
Cc1ccc(Cl)cc1NC(=O)Cn1c(=O)n(Cc2ccc(C(=O)NCc3ccc4c(c3)OCO4)cc2)c(=O)c2ccccc21	-29.7%
CC(=O)c1cccc(NC(=O)c2cc(-c3ccc(Cl)s3)nc3ccccc23)c1	-4.6%
CCOc1cc(C(=O)N2CC(=O)Nc3ccc(C)cc3C2c2ccccc2)cc(OCC)c1OCC (stereo not drawn)	-1.2%
CCCCSc1ncnc2c1sc1nc(N3CCOCC3)c3c(c12)CCCC3	-0.1%
CCOc1ccc(CNC(=O)c2ccc(NC(=O)N3CCCCc4ccccc43)cc2)cc1OC	-0.4%
Cc1ccc(-c2cc(C(=O)Oc3ccccc3Cl)no2)cc1C	-27.3%
CCOc1ccc(CN2C(=O)c3ccccc3Sc3ccc(C(=O)NCCc4ccccc4)cc32)cc1	4.7%
Cc1nn(C)c2c1c(-c1ccccc1)cc(=O)n2CC(=O)NC(C)c1ccccc1 (stereo not drawn)	-10.4%
CCOC(=O)c1ccc(NC(=O)CC2Nc3cccc4cccc(c34)NC2=O)cc1 (stereo not drawn)	11.0%
CN(C)c1ccc(NC(=O)CN2C(=O)c3ccccc3Sc3ccc(C(=O)N4CCCC4)cc32)cc1	-2.0%

Following part.
SMILES	miR-21 FLuc
COc1ccc(NC(=O)C2CCCN(S(=O)(=O)c3ccc(Cl)cc3)C2)cc1 (stereo not drawn)	0.0%
Cc1ccc(-c2nc3scc(CCNC(=O)Cc4ccc(Cl)cc4)n3n2)cc1	15.3%
CC1=C(C(=O)Nc2ccc(Cl)cc2)C(CC(C)C)n2nc(SCc3ccccc3C)nc2N1 (stereo not drawn)	1.7%
O=C(c1ccc2c(c1)N(Cc1c(F)cccc1Cl)C(=O)c1ccccc1S2)N1CCOCC1	-0.2%
O=C(Cn1ncn2cccc2c1=O)NCc1cccc(Br)c1	-6.3%
CCC(C)n1c(=N)c(S(=O)(=O)c2ccccc2)cc2c(=O)n3ccccc3nc21 (stereo not drawn)	-15.8%
Fc1ccc(Cc2cn3cc(-c4ccc(F)cc4)nc3s2)cc1	16.5%
CC(=O)N1CCc2cc(Br)cc(S(=O)(=O)NCCc3cccc(C)c3)c21	1.2%
COc1ccccc1OC(C)C(=O)N1CCN(CCc2ccccn2)CC1 (stereo not drawn)	-7.0%
CC(CC(=O)Nc1ccc(F)cc1)S(=O)(=O)c1cc2c3c(c1)CCN3C(=O)CC2 (stereo not drawn)	-2.4%
CC(=O)N1c2ccc(S(=O)(=O)N3CCCCCC3)cc2CC1C(=O)NCc1ccccc1C (stereo not drawn)	-1.3%
Cc1ccc(/C=C(\C#N)C(=O)Nc2ccc(Br)cc2)o1	-69.0%
CCOc1ccc(NC(=O)c2cnn(-c3ccccc3)c2-n2cccc2)cc1	9.2%
COc1ccc(Cl)cc1C(=O)NCc1nnnn1-c1ccccc1	-7.2%
Cc1cccc(OCc2nnc(SCC(=O)Nc3ccc(C)cc3C)o2)c1	-6.0%
CCCCOC(=O)c1ccc(NC(=O)Cn2nnc3sc4c(c3c2=O)CCCC4)cc1	15.5%
Cc1nc2c(-c3ccc(F)cc3)c(C)nn2c(C)c1CCC(=O)NCc1ccc(F)cc1	1.1%
Cn1nnnc1SCCCNCc1cccc(OCc2ccc(F)cc2)c1	26.0%
COCCNC(=O)C1CCN(S(=O)(=O)c2ccc3c(c2)CCCN3C(C)=O)CC1	5.0%
CCS(=O)(=O)c1ncc(N(Cc2ccccc2)Cc2ccco2)c(C(=O)Nc2ccccc2C)n1	-5.9%
CCc1ccc(NC(=O)C(C)n2nnc3sc(-c4ccccc4)cc3c2=O)cc1 (stereo not drawn)	-3.8%
COc1ccc2c(c1)CC(C(=O)NCCN1CCN(c3cccc(Cl)c3)CC1)CO2 (stereo not drawn)	4.7%
O=C(CNC(=O)c1ccc(F)cc1)OCc1cc(=O)n2ccsc2n1	-0.4%
CC1=C(C(N)=O)C(c2cccc(O)c2)n2ncnc2N1 (stereo not drawn)	-0.8%
COc1ccc(Cn2ccc3nc(C)c(C(=O)Nc4cc(C)cc(C)c4)cc3c2=O)cc1	0.7%

Further compounds follow:
SMILES	miR-21 FLuc
COc1ccc(COC(=O)C2=C(C)NC(=O)CC2c2cccc(Cl)c2Cl)cc1 (stereo not drawn)	-23.7%
COc1ccc(CCNC(=O)CCCn2c(=O)c3ccccc3n(CC(=O)Nc3cc(Cl)ccc3C)c2=O)cc1OC	-4.8%
CCOC(=O)c1c(C)[nH]c(C)c1S(=O)(=O)NCC(=O)NCc1ccccc1C	-5.3%
CNC(=O)C1CCC(Cn2c(=O)c3sccc3n(CC(=O)N3CCCCC3C)c2=O)CC1 (stereo not drawn)	-5.4%
CCCS(=O)(=O)NCCc1sc2nc(-c3ccc(F)cc3)nn2c1C	-10.0%
COc1ccc(NC(=O)Cc2coc3cc(C)cc(C)c23)c(OC)c1	-3.7%
Cc1cc(OCC(=O)N(Cc2ccc(N(C)C)cc2)Cc2ccco2)cc(C)c1Cl	18.7%
COc1ccc(N2CC(NC(=O)Cc3cccs3)CC2=O)cc1 (stereo not drawn)	-0.8%
COc1ccc(CNc2oc(/C=C/c3cc(OC)c(OC)c(OC)c3)nc2C#N)cc1	5.8%
COc1cccc(C(=O)N(Cc2cccc(Cl)c2)Cc2ccco2)c1	4.9%
Cc1ccccc1OC(=O)CSc1nnc(-c2ccc3c(c2)OCO3)o1	-16.8%
COc1ccccc1NC(=O)c1sc2nc(C)c(C(=O)Nc3ccc(C)cc3C)c(-c3cccs3)c2c1N	-6.8%
Cc1ccc(CC(=O)NCc2nc(-c3ccccc3)no2)cc1	-2.1%
COc1ccc(NC(=O)c2cc3c(s2)-c2c(C)cccc2OC3)cc1Cl	-0.9%
Cn1cc(CCCC(=O)NCc2cccc(Br)c2)c2ccccc21	4.2%
O=C(CCCCCn1c(=O)[nH]c2ccccc2c1=O)NCc1ccc(Cl)cc1	3.4%
CCC(C(=O)N1CCN(c2ccccc2)CC1)n1nc(C)c2sc3ccccc3c2c1=O (stereo not drawn)	-11.2%
CCCCn1cc2c(c1-c1ccccc1Br)c(=O)n(C)c(=O)n2C	-16.5%
Cn1c(=O)c2c(-c3ccccc3)n3c(c2n(C)c1=O)C(c1ccco1)Nc1ccccc1-3 (stereo not drawn)	-2.9%
Cc1c(CN(C)C(=O)c2cc(-c3ccccc3)nc3ccc(Br)cc23)cnn1C	18.5%
O=S(=O)(NCc1ccc(F)cc1)c1ccc2[nH]c3c(c2c1)CCCCC3	11.6%
CCc1ccc(NC(=O)Cn2c(=O)n(-c3ccc(Cl)c(Cl)c3)c(=O)c3c(C)c(C)sc32)cc1	-0.8%
COc1ccc(-c2nc3ccccc3n2Cc2ccc(C(C)C)cc2)cc1	6.4%
Cc1ccc(C(=O)NCC(=O)OCc2cc(=O)n3nc(C4CC4)sc3n2)cc1	-0.4%
COc1cccc(N2CCN(C(=O)C(CCSC)NS(=O)(=O)c3ccc4c(c3)oc(=O)n4C)CC2)c1 (stereo not drawn)	-0.2%

Quoted at random: 6 records from the list.
SMILES	miR-21 FLuc
COc1ccc(NC(=O)Cc2coc3cc(C)cc(C)c23)c(OC)c1	-3.7%
Cn1cc(CCCC(=O)NCc2cccc(Br)c2)c2ccccc21	4.2%
Cc1ccc(CC(=O)NCc2nc(-c3ccccc3)no2)cc1	-2.1%
CCCCn1cc2c(c1-c1ccccc1Br)c(=O)n(C)c(=O)n2C	-16.5%
O=C(CCCCCn1c(=O)[nH]c2ccccc2c1=O)NCc1ccc(Cl)cc1	3.4%
COc1ccc(N2CC(NC(=O)Cc3cccs3)CC2=O)cc1 (stereo not drawn)	-0.8%

Continued.
SMILES	miR-21 FLuc
CCC(C)NC(=O)C(=O)Nc1c2c(nn1-c1ccccc1)CS(=O)(=O)C2 (stereo not drawn)	-7.5%
COc1ccc(NC(=O)Cn2c(SCc3cc(C)ccc3C)nc3ccncc32)c(OC)c1OC	11.2%
Cc1ccc(OCC(=O)Nc2ccccc2C(=O)OCc2cc(=O)n3c(C)csc3n2)cc1	0.3%
O=C(CSc1nnc(NC(=O)NC2CCCCC2)s1)Nc1ccccc1F	-49.5%
Cc1ccc2c(c1)N(C(=O)Nc1ccc(Br)cc1F)CCO2	-0.5%
Cn1c(SCc2ccc(Br)cc2)nc2c([nH]c3ccccc32)c1=O	0.9%
O=C(Nc1ccc(F)cc1F)C1CCN(c2ncccn2)CC1	6.5%
Cc1ccc2c(c1)N(CC(=O)Nc1ccccc1C(F)(F)F)C(=O)c1cccnc1O2	-21.9%
COCCCn1c(SCC(=O)Nc2ccc(OC)cc2)nc2c(sc3ccccc32)c1=O	1.9%
O=C(NC(=O)c1ccccc1)Nc1ccccn1	26.6%
Cc1cccc(C)c1OCCCn1c(CCNC(=O)C2CCCCC2)nc2ccccc21	?
Cc1ccc(C)c(N2C(=O)N(Cc3cccc(C(F)(F)F)c3)c3ccccc3S2(=O)=O)c1	16.2%
